Beta cell apopt – blocks beta cell apoptosis. INS-1E cytokine-induced death, ATP luminescence, 48 h; percent of positive-control rescue, neutral wells zero. protection from apoptosis, % (no concentration beside the values). 300,000 tested, 0.8% active;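 active = all replicates at 75% or more, or half of them and the mean; inconclusive = half reach 75% but not the mean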;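 note: 0% = cytokine-treated negative control wells and 100% = positive control rescue; higher means more ATP so stronger rescue from cytokine killing; wells of about 40 µL received 100 nL stock; the first replicate is given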
FGF22 binding – shifts melting point of recombinant human FGF22. recombinant FGF22 thermal shift, SYPRO orange fluorescence; percent of sucrose octasulfate shift, DMSO zero. 340,000 tested, 1.5% active. calls only at 9.99 µM. Q9HCT0;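 active = melting point raised past a set limit in the mean and every replicate; inconclusive = no clear call; three in four hits are not shown here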
Target sequence (Q9HCT0 whole entry, looked up): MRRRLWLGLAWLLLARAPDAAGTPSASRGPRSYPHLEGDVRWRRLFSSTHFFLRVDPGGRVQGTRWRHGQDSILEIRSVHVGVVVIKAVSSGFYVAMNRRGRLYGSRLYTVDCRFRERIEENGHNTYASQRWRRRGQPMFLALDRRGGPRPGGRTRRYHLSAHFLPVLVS
ALR inh – blocks human ALR sulfhydryl oxidase activity; inhibition, % (no concentration beside the values); 290,000 tested, 3.8% active; purified ALR, DTT oxidation, H2O2 HRP-luminol luminescence;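 active = mean and each replicate at 75% or more; inconclusive = only one of the two met; inactive = neither met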;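 note: stock transfer was 7.5 nL into about 7.5 µL; 0% = neutral wells and 100% = wells with inactivated enzyme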
Target sequence (P55789 whole entry, looked up): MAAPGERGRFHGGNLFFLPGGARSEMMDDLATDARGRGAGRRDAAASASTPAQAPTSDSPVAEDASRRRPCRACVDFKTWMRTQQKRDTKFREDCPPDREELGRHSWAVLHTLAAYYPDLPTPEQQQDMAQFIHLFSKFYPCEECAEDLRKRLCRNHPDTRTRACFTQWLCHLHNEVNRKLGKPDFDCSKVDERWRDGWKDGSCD
Calb FLC – affects C. albicans growth with fluconazole; C. albicans CaCi-2 (fluconazole-resistant clinical isolate) + fluconazole, Alamar Blue growth, 48 h; growth inhibition, % (test concentration not listed); 300,000 tested, 0.57% active; AID 1979;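 active = most replicates above 75%; inconclusive = exactly half above 75%; inactive = most below 75%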;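 note: all wells also contain fluconazole at 8 µg/ml as a sub-toxic cotreatment; 0% = median of DMSO wells and 100% = median of geldanamycin control wells; wells of about 8 µL received 7.5 nL stock; the first replicate is given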
rRNA inh HTS – inhibitors of bacterial rRNA selective over humanized ribosomes; E. coli WT GFP vs humanized-ribosome RFP mutants, fluorescence, 24 h; stronger effect = lower value; DMSO median 0, no signal -100; GFP signal change (wild-type ribosome), % (no concentration beside the values); 350,000 tested, 1.6% active; AID 720706;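 active = significant combined selectivity score with lowered wild-type GFP, culture density cut under 30%, mutant RFP and density less affected; inactive = any of these conditions unmet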; note: one replicate is shown; some compounds called inactive have numbers as strong as hits
T cruzi repl – T. cruzi replication inhibition; T. cruzi beta-gal in NIH3T3, luminescence, 90 h; inhibition, % (test concentration not listed); 300,000 tested, 1.4% active;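 active = mean inhibition across valid replicates above about 55%, limit read from the data; inconclusive = mean below that limit but half or more replicates reach it; inactive = mean below it, under half of replicates reach it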;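 note: signal also drops with host cell toxicity which is not excluded here; 0% = plate median of DMSO wells and 100% = zero luminescence signal; higher percent means less beta-gal luminescence so fewer parasites; stock transfer was 50 nL into about 50 µL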
RanGTP-Impb inh – disruptors of Ran-importin-beta complex formation – biochemical, FRET, CFP-Ran, YFP-importin-beta, homogeneous, primary screen. cell-free CFP-Ran/YFP-importin-beta FRET ratio. AID 2216. 300,000 tested, 1.1% active. inhibition, % (concentration not given with the values);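 active = most replicates above 15%; inconclusive = exactly half above 15%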;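 note: 0% = DMSO wells and 100% = Ran loaded with GDP instead of GTP; wells of about 40 µL received 100 nL stock; the first replicate is given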
AF4-AF9 inh – inhibitors of human MLL-AF4/AF9 interaction; AlphaScreen, biotin-AF4 peptide binding to FLAG-AF9; inhibition, % at 10 µM; 350,000 tested, 0.47% active; AID 651704;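 active = every replicate reaching a set inhibition limit, whatever the replicate mean, cut at about 25% in these data; inconclusive = mean inhibition reaches that limit but some replicates miss it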;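 note: 0% = plate neutral control median and 100% = total signal loss; the record names both 10 and 1 µM as test concentration; the first replicate is given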
Target sequence (P42568 whole entry, looked up): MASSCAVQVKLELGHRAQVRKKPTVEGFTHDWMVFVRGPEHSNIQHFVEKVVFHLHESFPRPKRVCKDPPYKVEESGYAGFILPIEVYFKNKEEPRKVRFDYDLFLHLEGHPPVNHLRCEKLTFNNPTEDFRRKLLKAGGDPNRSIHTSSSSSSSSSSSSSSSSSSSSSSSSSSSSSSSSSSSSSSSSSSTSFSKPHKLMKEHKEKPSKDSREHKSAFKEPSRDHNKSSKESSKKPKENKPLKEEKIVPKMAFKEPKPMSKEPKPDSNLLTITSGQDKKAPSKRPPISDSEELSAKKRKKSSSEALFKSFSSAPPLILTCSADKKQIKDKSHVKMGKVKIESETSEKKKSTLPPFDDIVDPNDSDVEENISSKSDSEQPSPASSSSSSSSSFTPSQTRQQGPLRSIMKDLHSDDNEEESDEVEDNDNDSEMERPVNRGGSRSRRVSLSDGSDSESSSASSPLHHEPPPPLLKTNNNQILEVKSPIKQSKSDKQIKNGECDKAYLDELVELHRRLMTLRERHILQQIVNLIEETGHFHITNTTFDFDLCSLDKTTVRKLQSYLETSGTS
rRNA inh HTS OD600 – also measured in rRNA inh HTS; calls as there; OD600 change, %; measured here: OD600 growth;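 optical density of the mix in the first replicate; 0 = DMSO median and -100 = no signal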
rRNA inh HTS RFP – also measured in rRNA inh HTS; calls as there; RFP signal change, %; measured here: RFP humanized mutant strains;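 first replicate; 0 = DMSO median and -100 = no signal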
* = called active by the depositor; i = inactive; ? = inconclusive; nt = not tested or not shown. These rows are one share of the data. The share of hits here may be higher or lower than overall.

Order of values – AF4-AF9 inh	ALR inh	rRNA inh HTS	Calb FLC	T cruzi repl	rRNA inh HTS OD600	rRNA inh HTS RFP	FGF22 binding	RanGTP-Impb inh	Beta cell apopt
COc1ccc(C=NCCC2(O)CC(C)N(C)CC2C)cc1 (stereo not drawn)
 : nt	-11	nt	-5	-17	nt	nt	nt	-0.7	6
O=C(CCNC(=O)c1ccc([N+](=O)[O-])cc1)Nc1ccc(S(=O)(=O)N2CCOCC2)cc1
 : 2.3	-5	5	-8	-1	-3	-2.3	i	?	3
CCOc1ccc(-c2noc(CCC(=O)NCC3CCCO3)n2)cc1OC (stereo not drawn)
 : -0.4	0	3	-26	-29	4	-1.8	i	-1.2	2
Cc1c(Nc2scc(-c3ccccc3)[n+]2-c2ccccc2)c(=O)n(-c2ccccc2)n1C
 : nt	-11	nt	79	-148	nt	nt	nt	-1.8	11
COc1ccc(N2CCN(CC(=O)Nc3sccc3C#N)CC2)cc1
 : nt	nt	nt	42	-3	nt	nt	nt	0.4	-5
c1cc(-c2nnc(-c3ccncc3)o2)ccn1
 : nt	-3	nt	5	-18	nt	nt	nt	2.7	-2
COc1cccc(/C=C/C(=O)OCC(=O)c2cc(C)n(CC3CCCO3)c2C)c1OC (stereo not drawn)
 : 0.1	0	-7	nt	-9	-6	1.0	i	nt	4
CC(CCc1ccccc1)NC(=O)COC(=O)c1ccc(S(C)(=O)=O)c([N+](=O)[O-])c1 (stereo not drawn)
 : -4.1	1	13	-24	46	6	-5.1	i	?	-46
O=C(c1ccc(Cl)c(S(=O)(=O)N2CCCCCC2)c1)N1CCN(c2ccccn2)CC1
 : nt	-5	nt	-1	29	nt	nt	nt	-3.4	5
O=C(NC1CCCCC1)Oc1ccccc1
 : 3.1	1	2	-11	-7	2	-1.4	i	0.9	-1
CCN(CC(=O)Nc1sc2c(c1C#N)CCC(C)C2)Cc1nc2ccccc2c(=O)[nH]1 (stereo not drawn)
 : 3.3	-4	-23	-10	9	-26	0.5	i	-1.3	9
Cc1cc(Cl)ccc1NC(=S)NCCCO
 : -1.2	-8	7	0	-7	3	-2.5	i	-3.2	3
Cc1nn(CC(=O)O)c2ccccc12
 : nt	-4	nt	1	6	nt	nt	nt	1.6	-8
CCOCC(=O)Nc1nc(C)cc(C)n1
 : -1.7	32	9	-1	-4	9	1.4	i	3.2	1
O=[N+]([O-])c1ccc(C2=NCCO2)cc1
 : -0.1	46	-3	1	-1	12	-3.0	i	1.8	1

Fetched by compound from the list above:
Order of values – AF4-AF9 inh	ALR inh	rRNA inh HTS	Calb FLC	T cruzi repl	rRNA inh HTS OD600	rRNA inh HTS RFP	FGF22 binding	RanGTP-Impb inh	Beta cell apopt
CCOCC(=O)Nc1nc(C)cc(C)n1
 : -1.7	32	9	-1	-4	9	1.4	i	3.2	1
COc1ccc(N2CCN(CC(=O)Nc3sccc3C#N)CC2)cc1
 : nt	nt	nt	42	-3	nt	nt	nt	0.4	-5
O=C(NC1CCCCC1)Oc1ccccc1
 : 3.1	1	2	-11	-7	2	-1.4	i	0.9	-1
Cc1c(Nc2scc(-c3ccccc3)[n+]2-c2ccccc2)c(=O)n(-c2ccccc2)n1C
 : nt	-11	nt	79	-148	nt	nt	nt	-1.8	11

The listing picks up; the three compounds before the break are reprinted first.
Order of values – AF4-AF9 inh	ALR inh	rRNA inh HTS	Calb FLC	T cruzi repl	rRNA inh HTS OD600	rRNA inh HTS RFP	FGF22 binding	RanGTP-Impb inh	Beta cell apopt
Cc1nn(CC(=O)O)c2ccccc12
 : nt	-4	nt	1	6	nt	nt	nt	1.6	-8
CCOCC(=O)Nc1nc(C)cc(C)n1
 : -1.7	32	9	-1	-4	9	1.4	i	3.2	1
O=[N+]([O-])c1ccc(C2=NCCO2)cc1
 : -0.1	46	-3	1	-1	12	-3.0	i	1.8	1
Cc1cccc(C(=O)NC(=S)N2CCN(C)CC2)c1
 : nt	-7	nt	4	6	nt	nt	nt	3.2	-8
Cc1ccccc1OCC(=O)Nc1ccncc1
 : 1.9	99*	7	25	-7	13	2.4	i	-1.6	2
Oc1ccccc1N1CCN(C(=S)Nc2ccc(SC(F)F)cc2)CC1
 : -1.5	29	-59	-1	-13	-75	-24	i	4.6	2
Cc1ccc(OCC(=O)n2nc(C)cc2C)c(C)c1
 : nt	-2	nt	-3	-3	nt	nt	nt	-1.2	nt
COc1ccc(C(=O)Nc2ccc(Cl)cc2C(=O)N2CCCC(C)C2)cc1OC (stereo not drawn)
 : nt	nt	nt	7	10	nt	nt	nt	4.7	-12
COc1ccc(NC(=O)c2ccco2)c([N+](=O)[O-])c1
 : nt	nt	nt	-36	-2	nt	nt	nt	1.0	3
Cc1cc(C)n2nc(-c3cnn(C)c3C(F)(F)F)c(Cl)c2n1
 : nt	-5	nt	-14	-14	nt	nt	nt	-1.2	-2
Cc1cc(NCc2ccco2)nc(N2CCC(C(=O)NC3CCCCC3)CC2)n1
 : 0.7	1	5	1	-20	1	0.1	i	3.0	1
CCCc1ccc2oc(C(=O)N(C)Cc3nccs3)c(C)c2c1
 : -1.9	5	1	3	9	0	3.9	i	0.3	3
CC(C)(C)NC(=O)Cn1c(=O)oc2cc(S(=O)(=O)N3CCc4ccccc43)ccc21
 : -8.7	60	-1	0	11	1	-8.0	i	-0.7	-2
Cc1ccc(-c2nc(CN(C)Cc3ccc4nccnc4c3)c(C)o2)s1
 : 3.7	1	4	1	11	4	-0.2	i	3.8	0
N#Cc1ccccc1NC(=O)COC(=O)CSc1nc2ccccc2o1
 : nt	nt	nt	4	-11	nt	nt	nt	3.5	-8
Cn1c(SCc2ccc(Br)cc2)nc2c(c1=O)SCC2
 : 8.1	98*	3	5	14	-9	-3.2	i	6.8	6
O=C(CNC(=O)c1ccccc1F)Nc1ccc2c(c1)CCC2
 : 2.7	-12	2	nt	nt	12	-1.2	i	nt	1
COc1cccc(N(C(=O)c2snc(C(N)=O)c2N)C(C(=O)NCC2CCCO2)c2ccc3ncccc3c2)c1 (stereo not drawn)
 : ?	-4	2	1	-2	-5	1.5	i	3.0	3

Order of values – AF4-AF9 inh	ALR inh	rRNA inh HTS	Calb FLC	T cruzi repl	rRNA inh HTS OD600	rRNA inh HTS RFP	FGF22 binding	RanGTP-Impb inh	Beta cell apopt
C=CCn1c(=O)[nH]c2nc3cc(N=CN(C)C)c(C)cc3nc2c1=O
 : -5.9	-18	26	0	-15	35	63	i	-133	0
Cc1ccc(S(=O)(=O)/N=C2/C=C(C3C(=O)CC(C)(C)CC3=O)C(=O)c3ccccc32)cc1
 : nt	7	nt	-3	9	nt	nt	nt	-5.1	-5
O=C(CSc1nnc(-c2ccncc2)n1Cc1ccco1)c1ccc(Cl)cc1
 : nt	62	-20*	6	5	-10*	0.6*	nt	?	-4
CSC1=NCCN1C(=O)c1c(-c2ccccc2Cl)noc1C
 : -0.2	-1	6	-8	12	2	2.2	i	-3.0	3
CCN1CCN(c2nc(N)c([N+](=O)[O-])c(Nc3ccc(C)c(C)c3)n2)CC1
 : 4.3	10	nt	13	42	nt	nt	i	-4.7	8
CN1CCN(c2nc3ccccc3nc2C(C#N)C(=O)OC2CCCCC2)CC1 (stereo not drawn)
 : nt	11	nt	9	42	nt	nt	nt	15*	27
COCCNC(=O)Cn1cc2c(n1)CCC(C)C2 (stereo not drawn)
 : -0.6	nt	7	-1	-6	8	-0.5	nt	-1.6	2
COP(=O)(OC)c1nc(-c2ccccc2)oc1NCc1ccccc1
 : nt	36	nt	0	-11	nt	nt	nt	1.1	-6
COc1ccc(Br)cc1CNC(=O)C1CCN(S(=O)(=O)N2CCCCC2)CC1
 : nt	-2	nt	11	6	nt	nt	nt	-2.5	0
O=C(CCc1ccccc1)NC(=S)Nc1ccccc1[N+](=O)[O-]
 : 3.8	-1	-37	-8	2	-37	-4.1	i	3.2	2
Cc1cc(NC(=O)C(C)SCC(=O)Nc2cc(Cl)ccc2N2CCN(C)CC2)no1 (stereo not drawn)
 : 7.5	-3	10	-5	-2	9	-0.3	i	-2.2	-3
Cc1ccc(OCCCCN2CCCC(C)C2)c([N+](=O)[O-])c1 (stereo not drawn)
 : 0.2	-30	5	-26	13	3	1.1	i	-3.3	-4
O=C(CSc1nc2ccccc2o1)N/N=C/c1ccco1
 : 0.5	3	-1	nt	-6	4	-2.0	i	3.2	1
Cn1c(-c2ccc(F)cc2)cnc1SCC(=O)N1CCCCC1
 : nt	nt	nt	-8	13	nt	nt	nt	-0.7	-1
COC(=O)c1cc(Br)c(N)cc1OC
 : -2.3	nt	11	10	-3	7	2.2	i	-2.6	-5

Order of values – AF4-AF9 inh	ALR inh	rRNA inh HTS	Calb FLC	T cruzi repl	rRNA inh HTS OD600	rRNA inh HTS RFP	FGF22 binding	RanGTP-Impb inh	Beta cell apopt
CCOC(=O)CSC1=N/C(=C\c2cccnc2)C(=O)N1c1ccc(OC)cc1
 : nt	6	nt	-6	-12	nt	nt	nt	-1.7	-6
COc1ccc(/C=N/Nc2cc(C)nc(NS(=O)(=O)c3ccc(C)cc3)n2)cc1
 : -0.8	-9	2	6	1	4	-1.9	i	0.7	-4
O=C(NCC1CCCO1)c1ccc(COc2ccccc2Br)cc1 (stereo not drawn)
 : -4.0	-2	-23	24	17	-32	3.3	i	?	-1
CC(Sc1cnccn1)C(=O)O (stereo not drawn)
 : 0.4	0	13	-10	-15	14	1.2	i	1.4	4
CC(C)(C)NC(=O)NC(=O)CSc1nnc2ccccn12
 : nt	-9	nt	2	-11	nt	nt	nt	-1.4	2
Cc1cc(C)cc(NS(=O)(=O)c2ccc(-c3cnc(C4CC4)o3)cc2)c1
 : 1.9	-24	6	0	13	-15	8.6	i	0.3	nt
CNS(=O)(=O)c1cccc(C(=O)OCC(=O)c2c(N)n(C)c(=O)n(C)c2=O)c1
 : -6.1	nt	-2	-2	-14	2	-3.2	i	?	-6
NC(=O)NC(=O)CC1S/C(=N/N=C2/NC(=O)CS2)NC1=O (stereo not drawn)
 : -2.1	-11	8	-11	5	1	3.8	i	8.5	3
Cc1cc(OCC(=O)N2CCOCC2)ccc1NC(=O)c1ccccc1C
 : -1.2	-2	2	2	0	3	-2.2	i	4.2	3
COc1ccc(S(=O)(=O)Cc2ccc(C(=O)NCCc3ccc(S(N)(=O)=O)cc3)o2)cc1
 : -4.5	-2	1	7	-15	2	-1.9	i	0.9	-1
Cc1cc(OCC(=O)N(C)c2ccccc2)cc2c1C(=O)CC(C)(C)O2
 : 3.0	-5	nt	12	13	nt	nt	i	3.4	-5
CC(=O)c1cccc(NC(=O)/C=C/c2ccc([N+](=O)[O-])s2)c1
 : 0.1	nt	18	5	56*	4	2.0	i	-9.7	nt
Cc1ccccc1CSCCNC(=O)c1ccc(N(C)S(=O)(=O)c2ccccc2)cc1
 : nt	-6	nt	10	23	nt	nt	nt	-3.4	nt
Cc1ccc(S(=O)(=O)CCC(=O)OCC(=O)c2c(N)n(CC(C)C)c(=O)n(C)c2=O)cc1
 : -11	0	-3	7	3	11	-1.6	i	-3.5	-4
CCn1c(CNC(=O)c2ccccc2F)nnc1SCCOc1ccccc1
 : -14	-2	-1	-3	9	-7	-0.7	i	1.1	-2

From PubChem BioAssay
